Screening data deposited in PubChem BioAssay by National Center for Advancing Translational Sciences (NCATS).
PMP22 txn prim = modulates PMP22 transcription in S16 Schwann cells; 43,000 tested, 2% active; S16 Pmp22-F2sN Schwann cells (luciferase reporters placed in the Pmp22 gene), FLuc/NLuc coincidence luminescence, 24 h; Potency, µM (top dose mostly 57.5 µM), for the others: at the top dose activity change, negative = inhibition, actives largely listed as inhibitors; active = clear falling dose curves in both reporters; inconclusive = both reporters move, but less clearly or upward; inactive = either reporter flat; the % is the NLuc reporter signal; note: % is set by controls: 0 for no effect and ±100 for the full control effect; some results filed as inactive show a strong effect at the top dose
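Rat S16 Pmp22-F2sN cells, 500-1,000/well in phenol red-free DMEM + 10% FBS, compound-treated 24 h (37C, 5% CO2). Luminescence: FLuc read, Stop&Glo added, NLuc read.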
HTT prom inh = inhibitors of huntingtin promoter activity; Potency, µM (highest dose often 57.5 µM), for inactives: at the highest dose activity change, negative = inhibition, most hits filed as inhibitors; 48,000 tested, 0.93% active; AID 1508623; HEK293 HTT promoter firefly luciferase reporter (activity 0% = vehicle and -100% = no light), 24 h; active = well fitted inhibition curve with a large enough effect; inconclusive = small, poorly fitted or top-dose-only effect; inactive = no such curve, though single readings can be large or run the other way; note: nearly all actives have a fitted effect of over 50% in size
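Firefly luciferase signal from promoter-reporter HEK293 cells was scaled between vehicle (0%) and zero RLU (-100%). Compounds were tested at final concentrations of up to 57.5 uM over 24 h at 37 degrees C. PTC124 at 50 uM final served as control inhibitor.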
Active calls of the source: *; u = inconclusive; x = no result given; [ ] = dose if it differs, or a comment. Potency is the fitted concentration of half-maximal effect.

Below each compound: PMP22 txn prim, HTT prom inh
> Cc1nc(N2CCCC2)c2c(C(=O)Nc3cccc(Cl)c3)c(C)oc2n1
 : -13.4%, -11.7%
> CCOC(=O)c1cc(S(=O)(=O)Nc2ccc(Br)c(C)c2)[nH]n1
 : 0.9%, -16.8%
> CCc1ccccc1Nc1cc(C(=O)NCCCN(C)C2CCCCC2)c2ccccc2n1
 : 20µM*, -21.4%
> COc1cccc(-c2noc(-c3cc4ccccc4oc3=O)n2)c1OC
 : -2.1%, 30.2%
> CC(C)OCCCNC(=O)c1ccc(-n2c(-c3ccccc3)cc3c2CCCC3)cc1
 : 13.4µM*, 4.2%
> CC1CCN(C(=O)c2cnn(-c3cccc(Cl)c3)c2C2CCN(C(=O)OC(C)(C)C)CC2)CC1
 : -7.7%, 0.7%
> O=C(NCc1ccc(F)cc1)C1CCN(S(=O)(=O)c2ccc3c(c2)CCCN3C(=O)C2CCC2)CC1
 : u, u
> COc1ccc(Cl)cc1NC(=O)CCS(=O)(=O)c1cccc2nonc12
 : -20.3%, -16.1%
> CCOc1ccc(-c2nn(CC(=O)NC3CCCCC3)c3c2cnc2ccc(C)cc23)cc1
 : -5.4%, 13.9%
> Cc1c(CNC2CCCCC2)c(C(=O)O)c(C)n1Cc1ccc(F)cc1
 : -8.2%, -3.8%
> Cc1cccc(NC(=O)CSC2=Nc3ccccc3C3=NC(CCC(=O)NCc4ccc(F)cc4)C(=O)N23)c1 (stereo unspecified)
 : -9.7%, -10.6%
> NC(=O)c1ccccc1NC(=O)C1CCCN(c2ncnc3onc(-c4ccc(F)cc4)c23)C1 (stereo unspecified)
 : -14.8%, -8.4%
> Cc1ccc(C(=O)NCC(=O)OCc2cc(=O)n3nc(C4CCCCC4)sc3n2)cc1
 : u, -18.3%
> CN(C(=O)c1nn(C)c2c1CS(=O)(=O)c1ccccc1-2)c1cccc(Cl)c1
 : 14.0%, -16.9%
> COc1ccccc1OCC(=O)Nc1nc(-c2ccc(Br)cc2)ns1
 : 11.4%, 7.4%
> O=C(Nc1ccc2nc(SCC(=O)N3CCOCC3)sc2c1)c1cccc(Br)c1
 : 8.7%, u
> CCN(CC)c1ccc(C(=O)NCc2ccc3c(c2)CCN3C(=O)c2ccccc2)cc1
 : -3.6%, -11.7%
> COc1ccc(N(C)C(=O)c2cc3c(s2)-c2c(C)cccc2OC3)c(OC)c1
 : u, u
> CCCn1c(=N)c(C(=O)NCc2ccccc2)cc2c(=O)n3cccc(C)c3nc21
 : 2.24µM*, -11.3%
> CCOC(=O)c1cccc(NS(=O)(=O)c2ccc(-c3coc(C)n3)cc2)c1
 : -25.7%, -21.1%
> O=C(CSc1oc(-c2ccco2)nc1S(=O)(=O)c1ccc(Cl)cc1)c1ccccc1
 : -14.8%, -13.7%
> Cc1cccc(N(CC(=O)NCCSc2ccc(Cl)cc2)S(=O)(=O)c2ccccc2)c1C
 : u, u
> Cc1cccc(NC(=O)c2ccc(F)c(S(=O)(=O)N3CCC4(CC3)OCCO4)c2)c1
 : u, -37.0%
> Cc1cc(C)cc(NC(=O)CSc2nc3nccnc3c(=O)n2CCc2c[nH]c3ccccc23)c1
 : -30.6%, -15.9%
> CC(C)C(C)(C)C(C)(C)C(C)(C)S
 : x, 9.6%[116 µM]
> CC(NC(=O)c1ccc2c(c1)CCN2S(=O)(=O)c1ccc(Cl)cc1)c1ccccc1 (stereo unspecified)
 : -29.6%, u
> Cc1ccc(NC(=O)CCc2nc(-c3ccccc3F)no2)c(C)c1
 : -36.9%, -10.0%
> CCc1cccc(C)c1NC(=O)c1cc(S(=O)(=O)N2CCN(c3ccccc3)CC2)ccc1F
 : -7.1%, u
> COc1ccc(OC)c(S(=O)(=O)Nc2cc3c(C(C)=O)c(C)oc3c3ccccc23)c1
 : u, -28.1%
> CN(Cc1ccccc1)C(C(=O)NC1CCCCC1)c1ccc(Cl)cc1 (stereo unspecified)
 : 6.6%, -3.9%

Whole records as entered above.
COc1ccc(N(C)C(=O)c2cc3c(s2)-c2c(C)cccc2OC3)c(OC)c1 as listed: PMP22 txn prim: u; HTT prom inh: u
CCN(CC)c1ccc(C(=O)NCc2ccc3c(c2)CCN3C(=O)c2ccccc2)cc1 as listed: PMP22 txn prim: -3.6%; HTT prom inh: -11.7%

More compounds.
Below each compound: PMP22 txn prim, HTT prom inh
> Cc1ccc(CNc2nc3ccc(Cl)cc3n3cnnc23)cc1
 : u, -15.2%
> CCCCNC(=O)c1ccc2c(c1)ncn2-c1cc(OC)ccc1OC
 : -14.4%, -15.2%
> COc1ccc(NC(=O)CN2C(=O)COc3ccc(S(=O)(=O)Nc4ccccc4)cc32)cc1OC
 : -0.2%, -9.8%
> COc1ccc(-c2noc(CN(C(=O)C(C)Oc3ccc(C)cc3)C(C)C)n2)cc1 (stereo unspecified)
 : u, u
> COc1ccccc1CNS(=O)(=O)c1cnc(N)nc1
 : -2.8%, -4.9%
> COc1cccc(C2=CC(c3cc(Br)ccc3F)n3nnnc3N2)c1 (stereo unspecified)
 : u, u
> Cc1cc(F)ccc1S(=O)(=O)Nc1cc2c(C(=O)O)c(C)oc2c2ccccc12
 : -1.5%, -4.1%
> Cc1cccc(N2CCN(C(=O)c3cnn(-c4ccc(F)cc4F)c3C3CCN(C(=O)OC(C)(C)C)CC3)CC2)c1C
 : u, -18.3%
> CCOC(=O)C1CCCN(c2c(C(=O)c3ccc(C)cc3)cnc3ccc(OCC)cc23)C1 (stereo unspecified)
 : u, u
> COc1ccc(C2CC(=O)Nc3c2c(=O)[nH]c2nc4ccccc4n32)cc1OC (stereo unspecified)
 : 2.6%, -11.2%
> COc1ccc(CNC(=O)Cn2c(=O)nc(-c3ccccc3F)c3cc(Cl)ccc32)cc1
 : u, -27.9%
> Cc1ccc(OCC(=O)N(Cc2ccc(Cl)cc2)Cc2ccco2)cc1C
 : -52.6%, -22.8%
> Cc1[nH]c2ccc(F)cc2c1CCNC(=O)c1cc2cc(Cl)ccc2oc1=O
 : -2.8%, 17.3%
> CCc1c(C)sc2c1CCN(Cc1cccc(F)c1)C2c1ccccc1 (stereo unspecified)
 : u, u
> CC(=O)Nc1ccccc1-c1nc2ccccc2n(C(C)C(=O)Nc2cccc(C)c2C)c1=O (stereo unspecified)
 : -23.1%, -20.9%
> CCOC(=O)C(C)Sc1nnc2cc(C)c3ccccc3n12 (stereo unspecified)
 : -23.4%, 5.9%
> CC(C)c1ccc(-c2nnc3n(CCc4ccccc4)c(=O)c4ccccc4n23)cc1
 : u, u
> COc1ccc(CNC(=O)c2cc3c(=O)n4cccc(C)c4nc3s2)cc1
 : -7.0%, -0.5%
> CCc1ccc(-c2nc(CS(=O)CC(=O)NCc3ccc(F)cc3)c(C)o2)cc1 (stereo unspecified)
 : -1.3%, u
> Cc1onc(-c2ccccc2)c1C(=O)Cl
 : x, 2.1%
> O=C(O)c1cn(-c2ccc(F)cc2)c2cc(N3CCNCC3)c(F)cc2c1=O
 : x, -2.0%
> CCc1cccc(C)c1NC(=O)Cn1c(=O)n(-c2ccc(C)cc2)c(=O)c2c1cnn2C
 : -8.2%, -8.4%
> COc1ccc(C)cc1NC(=O)c1cc(S(=O)(=O)N2CCCCC2)c[nH]1
 : 10.1%, -22.5%
> COc1ccc(-n2c(C)nc3cc(C(=O)NC4CCCC4)ccc32)cc1
 : -5.0%, -22.4%
> CCCc1nc2ccccc2n2c(-c3ccccc3)c3c(=O)n(C)c(=O)n(C)c3c12
 : u, -18.6%
> Cc1nc2c(C(=O)NCc3ccccc3)c[nH]n2c(=O)c1Cc1ccccc1Cl
 : -10.9%, u
> Cc1cc(Cl)ccc1NC(=O)c1cccc(NC(=O)N2CCSc3ncccc32)c1
 : u, u
> COc1cccc(CNC(=O)C2CCCN(c3nn4cc(-c5ccc(C)cc5)nc4s3)C2)c1 (stereo unspecified)
 : -20.2%, u
> CCOc1ccc(C2c3c(oc4ccccc4c3=O)C(=O)N2c2nnc(C)s2)cc1OC (stereo unspecified)
 : 11.3%, -12.3%
> Cc1cc(NC(=O)CSc2nc(-c3cccc(F)c3)nc3c2c(=O)n(C)c(=O)n3C)no1
 : u, -12.1%
> Cc1ccc(CN2CCSc3ccc(C(=O)Nc4ccc(Cl)cc4)cc32)cc1
 : u, 19.3%
> Cn1cc(S(=O)(=O)c2cccc(Cl)c2)c(=O)c2cc(F)c(N3CCN(c4ccc(F)cc4)CC3)cc21
 : 5.2%, -12.9%
> COc1cccc(CNC(=O)CCNS(=O)(=O)c2cccc3nsnc23)c1
 : 3.3%, -10.0%
> O=C(Nc1ccc(-c2nc3ccccc3s2)c(O)c1)c1ccc(Br)cc1
 : -0.6%, 12.3%
> CCOc1ccc(-n2c(-c3ccc(C)cc3)nc3c(cnn3-c3ccccc3)c2=O)cc1
 : -20.5%, -18.5%[11.5 µM]
> Cc1cc(C)cc(NC(=O)N2CCC(N3CCCCC3)CC2)c1
 : -7.7%, 17.0%
> CCOc1ccccc1O[C@H](c1ccccc1)[C@H]1CNCCO1
 : x, -3.8%
> COc1ccc(N2CCN(C(CNC(=O)CC(C)C)c3ccc4c(c3)OCO4)CC2)cc1 (stereo unspecified)
 : -10.6%, -8.4%
> Cc1cc(=O)n(CC(=O)Nc2ccc([N+](=O)[O-])cc2)c(-n2nc(C)cc2C)n1
 : u, -20.6%
> CCOC(=O)c1c(C)sc(-c2c(-c3cc(C)ccc3C)[nH]c3c2c(=O)[nH]c(=O)n3C)c1O
 : -1.1%, 9.6%
> Cc1ccc(C(=O)CSc2nc3cc(C(=O)NC4CCCC4)ccc3c(=O)n2CC2CCCO2)cc1 (stereo unspecified)
 : 24.1%, 7.4%
> COc1cccc(NC(=O)C(=O)NCCc2csc3nc(-c4ccccc4C)nn23)c1
 : -16.5%, -6.5%
> CCOc1ccc(-n2c(=O)c3c4c(sc3n(Cc3cc(=O)n5cc(Cl)ccc5n3)c2=O)CCC4)cc1
 : -11.7%, 19.3%
> Cc1ccc(C(=O)COC(=O)CCCC(=O)Nc2cc(C(F)(F)F)ccc2Cl)cc1C
 : -5.7%, -10.2%
> CCN1CCSc2ccc(C(=O)NCc3cccc(F)c3)cc21
 : -38.6%, -13.7%
> COc1cccc(C(=O)Nc2ccccc2-c2nc(-c3ccc(C)cc3)no2)c1
 : -6.8%, 31.6%[activator]
> Cc1ccc(C)c(N(C)C(=O)CCNC(=O)Cn2cnc3ccccc3c2=O)c1
 : -32.3%, u
> Cc1ccc(N2CCN(c3ncnc4onc(-c5ccc(F)cc5)c34)CC2)c(C)c1
 : 1.2%, -5.1%
> COc1ccc(OC)c(NC(=O)CSc2nc3ccccc3nc2N2CCCCC2)c1
 : u, -30.0%
> CCOC(=O)c1ccccc1NC(=O)N1CCC(CN2CCOCC2)CC1
 : -17.4%, -23.6%
> CCc1ccc(NC(=O)Cn2nnc(C(=O)NCCc3ccccc3)c2N)cc1
 : -2.3%, -9.0%
> O=S(=O)(c1ccc(Cl)cc1)c1nc(-c2ccccc2)oc1N1CCN(c2ccccc2)CC1
 : u, -17.6%
> CCOc1cc(C2CC(=O)Nc3cc4c(cc32)OCCO4)ccc1O (stereo unspecified)
 : -29.9%, -30.2%
> COc1ccc(C(C)C)cc1S(=O)(=O)NCCc1c(C)[nH]c2ccc(C)cc12
 : u, u
> COc1cccc(NC(=O)c2cnc(SCC(=O)N3CCCc4ccccc43)n(C)c2=O)c1
 : u, -20.3%
> O=C(Cn1c2ncccc2c(=O)n1-c1ccccc1)Nc1ccc(Cl)cc1C(F)(F)F
 : -7.3%, 11.9%
> CCN(C(=O)CCS(=O)(=O)c1cc2[nH]c(=O)c(=O)[nH]c2cc1C)c1ccccc1
 : 4.3%, 2.1%
> CCOc1ccc(N2CC(c3nc(-c4cc(OC)c(OC)c(OC)c4)no3)CC2=O)cc1 (stereo unspecified)
 : u, 0.0%
> CC(C)CN(CC(C)C)c1nc(-c2ccc(Cl)cc2)nc2ccccc12
 : 18.1%, -3.1%
> Cc1oc2ccc(O)c(CN3CCCCCC3)c2c1C(=O)Nc1cccc(Cl)c1C
 : u, u

Additional compounds follow:
Below each compound: PMP22 txn prim, HTT prom inh
> COc1cccc(NC(=O)Cn2nnc(C(=O)NCc3ccc4c(c3)OCO4)c2N)c1
 : -5.7%, -1.9%
> COc1ccc2nc(N3CCN(C(=O)c4ccco4)CC3)sc2c1
 : u, 8.6%
> Cc1cccc(NC(=O)CCCn2nc(C)c3c(C)n(-c4ccccc4)nc3c2=O)c1C
 : 10.3%, -14.7%
> CCC1CN(C(=O)Nc2cc(C)cc(C)c2)c2ccccc2O1 (stereo unspecified)
 : -2.1%, -8.7%
> COc1ccc(Cl)c2sc(NC(=O)c3ccc(S(=O)(=O)N4CCOCC4)cc3)nc12
 : -7.9%, 3.1%
> NC(=O)C1(N2CCCCC2)CCN(CCCN2c3ccccc3CCc3ccc(Cl)cc32)CC1
 : x, u
> CC(=O)c1ccc(NC(=O)c2sc(-n3nc(C)c(CCC(C)C)c3C)nc2C)cc1
 : -4.6%, -14.8%
> COc1ccc(CNC(=O)c2cc(Nc3ccc(OC)cc3OC)nc3ccccc23)cc1
 : -58.4%, 16.6%
> COc1cccc(NC(=O)C(=O)NCC(c2ccc3c(c2)OCO3)N2CCOCC2)c1 (stereo unspecified)
 : u, 92.9%[activator]
> O=C(NCc1ccc(Cl)cc1)C1CCCN(c2ncnc3onc(-c4ccc(F)cc4)c23)C1 (stereo unspecified)
 : 3.9%, -11.8%
